Screening results: PubChem BioAssay, National Center for Advancing Translational Sciences (NCATS)
Cruzain inh Det = inhibitors of Trypanosoma cruzi cruzain with detergent; purified cruzain, Z-FR-AMC fluorescence, 0.01% Triton; AID 1478; Potency, µM, for the others: max response, negative = inhibition, hits mostly inhibitors; 200,000 tested, 0.43% active; P25779;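 also: plate controls were neutral wells for no effect and buffer without enzyme for full effect; nearly all actives have a fitted effect of over 40% in size; top concentration of the series not given in the record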
Target sequence (P25779 123-467 limits assumed): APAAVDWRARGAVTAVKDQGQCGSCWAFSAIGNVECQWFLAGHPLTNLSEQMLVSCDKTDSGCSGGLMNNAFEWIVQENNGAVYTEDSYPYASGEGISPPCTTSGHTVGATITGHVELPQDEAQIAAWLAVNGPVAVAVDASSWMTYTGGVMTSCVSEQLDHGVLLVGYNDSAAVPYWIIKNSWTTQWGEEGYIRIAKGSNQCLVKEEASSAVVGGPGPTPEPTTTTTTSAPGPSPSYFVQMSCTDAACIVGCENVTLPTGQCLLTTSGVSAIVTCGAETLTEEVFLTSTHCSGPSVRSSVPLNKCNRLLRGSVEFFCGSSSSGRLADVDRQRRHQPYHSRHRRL
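Detergent-containing arm of a paired screen for aggregation-based inhibition: 0.01% Triton X-100 present. Cruzain at 1.5 nM cleaved 2 uM Z-FR-AMC at pH 5.5 with 5 mM DTT; AMC fluorescence gain over 60 s measured activity.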
Cruzain noTriton = blocks cruzain activity in detergent-free assay | Potency, µM, for inactives: max response, negative = inhibition, hits mostly inhibitors | purified cruzain, Z-FR-AMC fluorescence, no detergent | 200,000 tested, 2.3% active | P25779 | AID 1476;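 also: plate controls were enzyme without inhibitor for no effect and buffer without enzyme for full effect; nearly all actives have a fitted effect of over 40% in size; top concentration of the series not given in the record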
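Purified cruzain at 1.5 nM, pre-incubated 15 min with compound at room temperature in 100 mM sodium acetate pH 5.5, 5 mM DTT, 0.00005% Triton X-100. Reaction started with 2 uM Z-FR-AMC; AMC fluorescence increase over 60 s gives rate.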
RE007 growth inh = less growth of the S. pombe RE007 Vpr strain. S. pombe RE007 Vpr strain, BacTiter-Glo ATP luminescence, 24 h; control for the full effect not named in the record. Potency, µM (series often up to 92.2 µM), without a hit: at the top dose activity change, negative = less growth. 360,000 tested, 0.21% active; active = well fitted falling curve with a large enough effect; inconclusive = small, poorly fitted or top-dose-only effect; inactive = no such curve, though single readings can be large or run the other way;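 also: % is scaled to controls: 0 for no effect and ±100 for the full control effect; nearly all actives have a fitted effect of over 50% in size; the assay follows cell death caused by Vpr and the record does not say whether a fall means rescue or toxicity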
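Fission yeast RE007 carrying one integrated HIV-1 vpr copy, seeded at OD 0.01 in PMG+AL medium with 23 nL pinned compound. Grown 24 h at 30 degrees; viability read by BacTiter-Glo luminescence after 5 min.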
LASV entry inh = Lassa virus entry inhibition; Lassa virus pseudotype entry inhibition, cell reporter; control for the full effect not named in the record; Potency, µM (top dose mostly 37.9 µM), without a hit: at the top dose activity change, negative = inhibition, hits mostly inhibitors; 300,000 tested, 1.2% active; AID 540256; active means well fitted inhibition curve with a large enough effect; inconclusive means small, poorly fitted or top-dose-only effect, or effect the other way; inactive means flat fitted curve, though single readings scatter; tested in HEK293 cells; also: % is scaled to controls: 0 for no effect and ±100 for the full control effect; nearly all actives have a fitted effect of over 50% in size; luciferase read-out
SARS PLpro yeast = blocks SARS-CoV papain-like protease in a yeast assay; S. cerevisiae expressing SARS-CoV PLpro, growth rescue; control for the full effect not named in the record; Potency, µM (doses to about 32.9 µM), for the others: top-dose activity, positive = growth rescue; 330,000 tested, 0.19% active; AID 485353; active means well fitted rising curve with a large enough effect; inconclusive means small, poorly fitted or top-dose-only effect; inactive means no such curve, though single readings can be large or run the other way; also: 0% is about no effect; nearly all actives have a fitted effect of over 55% in size; growth read by luminescence after 48 h
Marburg entry inh = inhibitors of Marburg virus binding or cell entry | Potency, µM (doses to about 37.8 µM), for inactives: at the top dose activity change, negative = inhibition, most hits filed as inhibitors | 300,000 tested, 1.8% active | Marburg virus pseudotyped entry inhibition, cell reporter; control for the full effect not named in the record; about a third of the inactives were read at about 46 µM; active = well fitted inhibition curve with a large enough effect; inconclusive = small, poorly fitted or top-dose-only effect, or effect the other way; inactive = flat fitted curve, though single readings scatter; tested in HEK293 cells; about a fifth of its hits are not listed in these tables; also: % is scaled to controls: 0 for no effect and ±100 for the full control effect; luciferase read-out
StopGo reporter = lowers the luciferase signal of an FMDV 2A StopGo reporter | human cells with a luciferase reporter of 2A StopGo recoding; control for the full effect not named in the record | Potency, µM (series often up to 57.9 µM), for inactives: top-dose signal change, negative = less light | 410,000 tested, 1.2% active | AID 1159524; active = well fitted falling curve with a large enough effect; inconclusive = small, poorly fitted or top-dose-only effect; inactive = no such curve, though single readings can be large or run the other way; tested in HEK293T cells; also: % is scaled to controls: 0 for no effect and ±100 for the full control effect; nearly all actives have a fitted effect of over 45% in size; luciferase light after 4 h
NS1 inh = inhibitors of influenza NS1 protein function; S. cerevisiae slowed by influenza A NS1, growth recovery by OD600; Potency, µM (series often up to 46.1 µM), without a hit: top-dose activity, positive = more growth; 270,000 tested, 0.4% active; active means well fitted rising curve with a large enough effect; inconclusive means small, poorly fitted or top-dose-only effect; inactive means no such curve, though single readings can be large or run the other way; also: nearly all actives have a fitted effect of over 50% in size
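Recovery from NS1-induced slow growth read by OD600 in budding yeast switched to galactose assay medium (pH 6.0, -URA) at 1:100 dilution. Compound 23 nl per well; the matching strain lacking NS1 serves as control.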
The depositor's hits bear a star; ? = inconclusive; · = no result given; & = joins results of further samples; [ ] = another dose, or the depositor's remark. Unless noted, calls follow the shape of the dose curve; as a rule, active = well fitted curve in the direction sought with a large enough effect; inconclusive = small, poorly fitted or top-dose-only effect, or another doubt; inactive = no such curve, though single readings can be large; an effect the other way counts as inactive or inconclusive. Potency is read from the fitted curve at half-maximal effect.

SMILES	Cruzain inh Det	Cruzain noTriton	RE007 growth inh	LASV entry inh	SARS PLpro yeast	Marburg entry inh	StopGo reporter	NS1 inh
CCOC(=O)CSc1nnc(-c2ccco2)n1-c1ccc(C)cc1	1.6%	8%	13%	10%	-1%	5%	-13%	-7%
CCS(=O)(=O)N1CCCC(C(=O)NCCN2CCC(Cc3ccccc3)CC2)C1 (configuration not stated)	0.7%	-3%	-5%	3%	4%	-24%&-24%	-23%	-2%
O=C(Cc1ccc(Br)cc1)NCCc1ccccc1	·	·	-2%	5%[46.1 µM]	·	-10%[46.1 µM]	17%	·
Cc1ccc(S(=O)(=O)N2CC=C(c3ccc(F)cc3)CC2)cc1	-6.7%	-5%	33%	-2%	-27%	?	0%	-12%
CCCCN(C(=O)c1cc(S(=O)(=O)N2CCCCC2)ccc1Cl)c1c(N)n(CC(C)C)c(=O)[nH]c1=O	·	·	27%	-1%	·	15%	-8%	·
CSc1nnc(-c2ccccc2Cl)n1N	4.8%	4%	16%	-9%	2%	3%	-20%	4%
Cc1ccc(/C=C/C(=O)NCc2ccccn2)o1	-12%	-6%	1%	4%	2%	17%	-13%	25%
CCOC(=O)c1sc(NC(=O)CSc2n[nH]c(-c3ccc(Cl)cc3Cl)n2)c(C#N)c1C	-7.3%	-28%	9%	22%	0%	?	-11%	18%
COc1cc2[nH]c(=S)nc(NCC3CCCO3)c2cc1OC (configuration not stated)	1.1%	-10%	2%	-13%	3%	-1%	3%	-3%
O=C(CC1Nc2ccccc2NC1=O)NCc1cccnc1 (configuration not stated)	-4.5%	0%	16%	-12%	10%	7%	0%	3%
Cc1cc(C)c2nc(-c3cccnc3)cc(C(=O)Nc3ccc(S(=O)(=O)Nc4onc(C)c4C)cc3)c2c1	·	·	0%	5%	1%	-15%	8%	·
O=C(CN1CCOCC1)Nc1ccc(NC(=O)CN2CCOCC2)c(Cl)c1	-1.4%	-4%	6%	-4%	3%	24%	-11%	1%
CC(C)c1ccc(NC2CCCN(C(=O)c3cnsn3)C2)cc1 (configuration not stated)	·	·	4%	-17%	1%	-27%	?	-10%
CCCN1CCN(C(=O)Cn2nc(CC)n3c(cc4sccc43)c2=O)CC1	·	·	0%	·	3%	·	3%	13%
COc1ccc(/C=N/NC(=O)c2cc3c(ccc4ccccc43)o2)cc1OC	·	·	-20%	-5%[46.1 µM]	-1%	-9%[46.1 µM]	-22%	20%
Cc1ccc(NC(=O)COC(=O)C2=COCCO2)cc1	2.5%	-5%	23%	?	4%	7%	51%[activator]	2%
COc1cccc(C2=NOC(C(=O)N3CCN(C(=O)c4ccco4)CC3)C2)c1 (configuration not stated)	0.3%	2%	1%	-12%	5%	32%	-18%	5%
O=C(Nc1ccc(C(=O)O)cc1)/C(=C/c1ccc2c(c1)OCO2)NC(=O)c1cccc(Br)c1	·	·	7%	-11%[46.1 µM]	0%	1%[46.1 µM]	1%	·
C(=C\CSc1ncn[nH]1)/CSc1ncn[nH]1	3.3%	3%	39%	23%	-1%	0%	-20%	3%
CC(=O)N1CCc2cc(Br)cc(S(=O)(=O)N3CCc4ccccc43)c21	·	·	-1%	1%	-13%	-2%[46.1 µM]	-15%	·
COc1cc(C(=O)Nc2ccc3c(c2)nc(C)n3C)cc(OC)c1OC	·	·	-20%	·	3%	·	27%	25%
Cc1cc(S(=O)(=O)Nc2nc(CN3CCOCC3)nc3sc4c(c23)CCC4)ccc1F	·	·	11%	?	5%	-30%	23%	·
NS(=O)(=O)c1ccc(NC(=O)c2c(F)cccc2Cl)cc1	·	·	11%	·	0%	·	-13%	-1%
COc1ccc(CCNC(=O)CCc2c(C)nc3c4c(C)cc(C)nc4nn3c2C)cc1OC	-2.0%	4%	·	5%[46.1 µM]	·	20%[46.1 µM]	-15%	·
O=C(O)CC(CN1C(=O)c2ccccc2C1=O)c1ccccc1 (configuration not stated)	·	·	-4%	22%[46.1 µM]	·	?	4%	·
Next part.
SMILES	Cruzain inh Det	Cruzain noTriton	RE007 growth inh	LASV entry inh	SARS PLpro yeast	Marburg entry inh	StopGo reporter	NS1 inh
CC(C)(C)OC(=O)NC(CC(=O)OCc1ccccc1)C(=O)O (configuration not stated)	·	·	-11%	·	0%	2%	5%	6%
O=C(c1ccc(F)cc1)[C@@H]1[C@@H](C(=O)c2ccccc2)[C@@]2(C(=O)Nc3ccccc32)[C@H]2c3ccccc3C=CN12	-8.2%	?	·	-5%	-5%	?	·	23%
O=C(CSc1oc(-c2ccccc2)nc1S(=O)(=O)c1ccc(F)cc1)NCC1CCCO1 (configuration not stated)	-2.6%	-15%	16%	0%	3%	?	-11%	5%
COc1ccc(/C=N/Nc2ccccn2)c(OC)c1OC	·	·	-23%	?	-4%	?	56%[activator]	·
O=C(NC1CC1)c1sc2cc(Cl)ccc2c1Cl	·	·	-15%	-4%	·	?	94%[activator]	·
Cc1ccc(S(=O)(=O)NNC(=O)c2ccoc2C)cc1	·	·	9%	·	1%	·	18%	1%
CN(c1ccc(C(=O)NCc2ccc3c(c2)OCO3)cc1)S(C)(=O)=O	2.1%	-2%	10%	22%	3%	-1%	-4%	0%
Cn1c(CN2CCOCC2)c(C#N)c2ccccc21	2.9%	5%	7%	-25%	4%	-1%&-1%	-1%	7%
C(=N\n1cnnc1SCc1ccccc1)/c1ccco1	-1.0%	-3%	-13%	-19%	-4%	11%	-20%	1.1µM*
O=C(NNC1=NS(=O)(=O)c2ccccc21)c1ccc([N+](=O)[O-])cc1	·	·	-3%	7.9µM*	4%	?	-22%	7%
CCOC(=O)C1=C(CN2CCN(C(=O)OCC)CC2)NC(=O)NC1c1ccc2c(c1)OCO2 (configuration not stated)	·	·	7%	?	1%	-15%[46.1 µM]	-10%	·
Cc1nc2nc(NCc3cccc(Cl)c3)[nH]n2c(=O)c1Cc1ccccc1	-0.9%	-13%	·	18%[46.1 µM]	·	12%[46.1 µM]	-17%	·
Nc1nnc(SCC(=O)Nc2cc(F)ccc2F)s1	·	·	21%	0%	0%	2%	8%	·
COC(=O)c1c(C(=O)OC)c(-c2ccc(Br)cc2)n2c1CS(=O)C2 (configuration not stated)	·	·	30%	·	5%	·	13%	5%
Cc1n[nH]c(=O)c2c(NC(=O)CSc3nc4ccccc4c(=O)n3-c3ccc(OC(F)F)cc3)oc(C)c12	·	·	-1%	-1%	-2%	-1%	-1%	·
Cc1cc(C)cc(NC(=O)c2cccc(N3CCCS3(=O)=O)c2)c1	-0.6%	8%	·	7%[46.1 µM]	·	·	58%[activator]	·
O=C(NCCC1=CCCCC1)C1CCC(=O)N(Cc2cccc(C(F)(F)F)c2)C1 (configuration not stated)	·	·	0%	-6%	3%	18%	-14%	-2%
COC(=O)[C@H]1C[C@@H]1[C@H](NC(=O)c1cccnc1)c1ccccc1	1.6%	3%	-7%	·	·	·	-17%	·
O=C(NO)C1CC2C=CC1C2 (configuration not stated)	4.7%	-9%	7%	-2%	2%	-2%	·	-3%
Cc1cc(C)c(S(=O)(=O)N2CCN(S(=O)(=O)N3CCCCCC3)CC2)c(C)c1	·	·	?	?	3%	1%[46.1 µM]	-18%	23%
Clc1ccc(-c2ccccc2)nn1	·	·	1%	14%	-1%	10%[14.2 µM]	21%	-1%
Cc1ccccc1NC(=O)C1CC(=O)N(Cc2ccccc2)C1 (configuration not stated)	·	·	18%	0%	-1%	-7%[14.2 µM]	-10%	·
CCOC(=O)c1cc2c(=O)n3ccccc3nc2n(Cc2ccco2)c1=NC(=O)c1ccc(OC)cc1	-7.9%	5%	-1%	1%	0%	?	-5%&6%	·
CC(=O)c1ccc(NS(=O)(=O)c2ccc(CC(C)C)cc2)cc1	-6.6%	-2%	-14%	?	-54%	-6%	59%[activator]	-35%
CC(OC(=O)CCc1ccccc1)C(=O)Nc1ncc(Cl)cc1Cl (configuration not stated)	·	·	16%	·	1%	·	-27%	-2%
Other compounds
SMILES	Cruzain inh Det	Cruzain noTriton	RE007 growth inh	LASV entry inh	SARS PLpro yeast	Marburg entry inh	StopGo reporter	NS1 inh
Cc1ccc(N2C(=O)N(CC(=O)Nc3cccc(C)c3C)C(=O)C2C)cc1 (configuration not stated)	·	·	-10%	6%	-1%	13%	-10%	·
N#CC(c1ccc(Cl)cc1)c1nc2ccccc2nc1C(F)(F)F (configuration not stated)	-2.0%	8%	-9%	4%	-29%	0%	-21%	-68%
O=S(=O)(NCc1ccccc1)c1ccccc1Br	·	·	-3%	·	0%	·	37%[activator]	-5%
COc1ccc(NC(=O)c2ccc(CNS(=O)(=O)c3ccc4c(c3)C(C)(C)C(=O)N4C)cc2)cc1	2.7%	-6%	·	?	·	·	-13%	·
[N-]=[N+]=CC(=O)CNC(=O)[C@@H](Cc1ccccc1)N1C(=O)c2ccccc2C1=O	-8.2%	-4%	6%	3%	3%	-31%[46.1 µM]	0%	1%
CC1=NC(C)Cc2ccccc21 (configuration not stated)	4.7%	-2%	-8%	11%	6%	16%	-11%	-3%
C=C(C)C(=O)Nc1cccc(C2=NOC3(C2)C[C@@H](C(N)=O)N(C(=O)/C=C/CC)C3)c1 (some centres not stated)	·	·	-1%	·	3%	·	-3%	5%
CCc1nc2ccccc2c(C(=O)OCC(=O)N(CCOC)c2c(N)n(Cc3ccccc3)c(=O)[nH]c2=O)c1C	·	·	-9%	6%	-7%	?	-25%	·
Cc1ccc(NC(=O)Cn2c(=O)n(Cc3ccccc3)c(=O)c3sc4ccccc4c32)cc1	-0.6%	-9%	·	14%[46.1 µM]	·	2%[46.1 µM]	-9%	·
Cc1ccc(N(C(=O)Cn2nnc(-c3ccc(C)o3)n2)C(C(=O)NC2CCCC2)c2ccco2)cc1 (configuration not stated)	6.3%	25µM*	1%	-7%	12%	?	-9%	-13%
COc1ccc(C)cc1N(C(=O)c1snc(C(N)=O)c1N)C(C(=O)NC1CCCC1)c1ccc(F)cc1 (configuration not stated)	·	·	21%	?	1%	?	-17%	?
CCc1ccc(C(=O)c2cn(CC(=O)Nc3cc(OC)ccc3OC)c3ccc(Cl)cc3c2=O)cc1	-2.5%	7%	·	18%[46.1 µM]	·	-21%[46.1 µM]	-20%	·
